# Screening results deposited in PubChem by ICCB-Longwood Screening Facility, Harvard Medical School.
# Polio RdRp inh: poliovirus RNA polymerase inhibition. AID 588519. poliovirus polymerase elongation, fluorescence polarization; hits give low values. actives 0.66% (n = 150,000). % elongation, % (compound at 16.7 µg/mL); in the data active = % elongation below about 90%; note: some results filed as inactive read as strong as hits
# Target sequence (P03300 1749-2209 limits assumed): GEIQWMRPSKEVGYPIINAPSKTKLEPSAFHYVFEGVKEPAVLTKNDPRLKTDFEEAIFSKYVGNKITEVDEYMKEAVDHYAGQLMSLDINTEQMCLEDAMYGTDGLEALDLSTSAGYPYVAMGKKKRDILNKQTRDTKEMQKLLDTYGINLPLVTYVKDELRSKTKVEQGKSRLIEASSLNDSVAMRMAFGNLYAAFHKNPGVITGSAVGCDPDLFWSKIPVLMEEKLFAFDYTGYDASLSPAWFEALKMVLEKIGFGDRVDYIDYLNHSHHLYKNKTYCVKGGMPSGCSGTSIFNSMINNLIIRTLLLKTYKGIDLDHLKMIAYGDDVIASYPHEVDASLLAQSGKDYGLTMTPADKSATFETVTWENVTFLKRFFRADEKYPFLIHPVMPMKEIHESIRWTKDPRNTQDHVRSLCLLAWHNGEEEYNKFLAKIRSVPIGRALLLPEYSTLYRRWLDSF
# Polio RdRp inh intensity: further read-out of Polio RdRp inh, marked with its call; % elongation; measured here: total intensity read-out; formula for this scale not given here;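 total fluorescence in place of polarization; lower means less elongation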
# Active calls of the source: *. Some of the compounds tested. The share of hits here may be higher or lower than overall.
SMILES,Polio RdRp inh,Polio RdRp inh intensity
CCOC(=O)C1CCN(C(=O)Cn2nc(C)n3c(cc4c(OC)cccc43)c2=O)CC1,99,106
Cc1ccc(NS(=O)(=O)c2cc(Br)cc3c2N(C(=O)C2CC2)CC3)cc1C,101,107
CC(=O)c1cccc(NC(=O)CN(c2cc(C)cc(C)c2)S(=O)(=O)c2c(C)noc2C)c1,106,107
Cc1ccc(CNc2ccc(-c3nc(-c4ccncc4)no3)cc2[N+](=O)[O-])cc1,107,109
Cc1ccc(NC(=O)Cn2c(=O)n(-c3ccc(Cl)c(Cl)c3)c(=O)c3c(C)c(C)sc32)c(C)c1,107,111
Cc1ccc2occ(CC(=O)N(Cc3ccccc3Cl)C3CCS(=O)(=O)C3)c2c1 (stereo not given),-14*,19*
CCCN(C(=O)c1c(C)oc2ncn(CC(C)C)c(=O)c12)c1ccccc1C,109,114
O=C(CN1C(=O)c2cccnc2Oc2ccc(Cl)cc21)Nc1cccc(C(F)(F)F)c1,111,103
Cc1cc(=O)[nH]c2nnc(SCCC(C)C)n12,101,109
Cc1ccc(CNC(=O)Nc2cc(C(=O)NCc3ccc(C(C)C)cc3)ccc2N2CCCC2)cc1,108,111

# 2 of the compounds above, with tabs:
compound	Polio RdRp inh	Polio RdRp inh intensity
Cc1ccc(CNc2ccc(-c3nc(-c4ccncc4)no3)cc2[N+](=O)[O-])cc1	107	109
CC(=O)c1cccc(NC(=O)CN(c2cc(C)cc(C)c2)S(=O)(=O)c2c(C)noc2C)c1	106	107

# Next part:
SMILES,Polio RdRp inh,Polio RdRp inh intensity
COc1ccc(-n2ccnc(NCc3ccccc3Cl)c2=O)cc1OC,106,115
Cc1ccc(-c2cc(C(=O)Oc3ccccc3)c3cccc(C)c3n2)cc1,104,109
CCOC(=O)c1ccc(NC(=O)c2nc(SCc3ccc(F)cc3)ncc2Cl)cc1,98,92
CN(C(=O)CSc1nc2ccccc2n1CC(=O)N(C)C1CCCCC1)c1ccc(F)cc1,105,100
Cc1ccc(-n2nc(C)c3c(C)cc(=O)n(CC(=O)Nc4ccc(C(C)C)cc4)c32)cc1,109,103
COc1ccc(N2CCN(C(=O)c3cn(C)c4ccc(S(=O)(=O)N5CCOCC5)cc4c3=O)CC2)cc1,103,103
CC(C)NC(=O)C1CCN(c2nc3ccccc3nc2C(F)(F)F)CC1,100,104
CCOC(=O)c1ccc(NC(=O)CCCc2nc(-c3ccccc3Cl)no2)cc1,106,112
CC(=O)OC1=CN(Cc2ccccc2)S(=O)(=O)c2ccccc21,106,102
Cc1oc2ccc(O)c(CN(C)Cc3ccccc3)c2c1C(=O)Nc1cccc(Cl)c1C,101,107
O=C(Nc1ccc(NC(=O)c2cc3ccccc3o2)cc1)c1ccccc1,108,114
COc1cccc(Cn2c(CNC(=O)C(C)C)nc3cccnc32)c1,113,122
CCCCSCCCNC(=O)C1CCN(Cc2nc(-c3ccc(CC)cc3)oc2C)CC1,111,108
CCOc1cc2[nH]c(=O)n(CCCCCC(=O)NC(C)CC)c(=O)c2cc1OCC (stereo not given),109,109
Cn1cnc2c(=O)oc3ccc(S(=O)(=O)N4CCN(c5ccccc5F)CC4)cc3c21,108,111
O=C(Cn1ccc2cc(S(=O)(=O)N3CCCCCC3)ccc21)NCc1ccccc1Cl,98,105
Cc1c(Cl)cccc1NC(=O)CSc1nc(=O)[nH]c2c1CCCC2,104,105
Cc1ccc(NC(=O)Nc2c(C)n(C)n(-c3ccccc3)c2=O)c(Cl)c1,104,104
COc1c(Cl)cc(Cl)cc1C(=O)Nc1cccc2cccnc12,112,108
O=C(NCCCN1CCN(c2ccccc2)CC1)c1sc2ncccc2c1-n1cccc1,105,112
Cc1cccc(N2CCN(C(=O)c3ccc(CS(=O)c4cccc(Cl)c4)o3)CC2)c1C (stereo not given),110,109
CCC(C)n1c(=O)c2sccc2n2c(CCCC(=O)Nc3ccc(F)cc3)nnc12 (stereo not given),109,110
CC(C)CCNC(=O)c1ccc2c(c1)N(Cc1ccccc1F)C(=O)c1ccccc1S2=O (stereo not given),108,111
CCOC(=O)c1cccc(NC(=O)c2cc3c(Cl)nc4ccc(C)cc4c3s2)c1,102,105
CC1=C(c2ccc(C)c(C)c2)S(=O)(=O)N(Cc2ccc(C(=O)NCc3cccc(C)c3)cc2)C1=O,109,111
COc1cc(Cl)c(C)cc1NC(=O)CCc1nc2cccnc2n1-c1ccccc1,107,112
COc1ccc(C(CNC(=O)COc2cc(C)c(Cl)c(C)c2)N2CCCCC2)cc1 (stereo not given),107,105
COc1ccccc1NC(=O)CCn1cnc2onc(-c3ccc(F)cc3)c2c1=O,108,99
CCc1nnc(NC(=O)CSc2nc3c([nH]c4ccccc43)c(=O)n2-c2ccc(C)cc2)s1,105,105
CCN(c1ccccc1)S(=O)(=O)c1ccc(NC(=O)c2cc(=O)c3cc(C)ccc3o2)cc1,110,112
CC(=O)Nc1nonc1-c1nc2ccccc2n1Cc1ccccc1Br,102,108
CCOc1ccc(NC(=O)C(=O)NCCc2ccccc2)cc1,101,102
CCc1ccc(-n2c(=O)c3cccnc3n2CC(=O)Nc2ccccc2C(F)(F)F)cc1,109,111
Cc1ccc(/C=C/c2onc(C)c2S(=O)(=O)N2CCC(C(=O)Nc3cccc(C#N)c3)CC2)cc1,97,98
COc1ccc(NC(=O)CCc2c(C)nn(-c3ccc(N4CCCCC4)nn3)c2C)cc1Cl,104,114
CN(C)c1ccc(CNC(=O)c2cccn2-c2nnc(N3CCCCC3)s2)cc1,100,100
CCOc1cc(C(=O)Nc2ccc(S(=O)(=O)Nc3cc(OC)nc(OC)n3)cc2)cc(OCC)c1OCC,109,107
Cc1ccccc1CSc1nc2nc(C)c(Cc3ccccc3)c(C)n2n1,110,109
CCOc1ccc(CCNC(=O)CN2C(=O)C(CC)Oc3ccccc32)cc1OCC (stereo not given),107,111
CC(NC(=O)CN1C(=O)c2cccnc2Oc2ccc(Cl)cc21)c1ccccc1 (stereo not given),109,112
CCOC(=O)C1=C(CN2CCN(c3ccc(Cl)cc3)CC2)NC(=O)NC1c1ccc(OC)cc1 (stereo not given),100,101
CC(C)CCNC(=O)CN1C(=O)c2cccnc2Oc2ccccc21,104,108
CCS(=O)(=O)c1ncc(N(Cc2ccccc2)Cc2ccco2)c(C(=O)Nc2ccc(C)c(C)c2)n1,102,106
COc1ccccc1NC(=O)COc1ccc(-c2nn(C)c(=O)c3ccccc23)cc1,106,111
Cc1cc(C)nc(-n2nc(C)c3c2NC(=O)CC3c2cc(F)ccc2F)n1 (stereo not given),103,104
COc1cc(NC(=O)c2cc(Cl)c(OC)c(Cl)c2)ccc1NC(=O)c1cc2ccccc2o1,109,106
CCN1CCc2c(sc(NC(=O)c3ccc(S(=O)(=O)N4CCCC(C)C4)cc3)c2C(=O)OC)C1 (stereo not given),99,89
CCN(CC)CCOC(=O)c1ccc(NC(=O)Cn2ncc3c2-c2cc(C)ccc2OC3)cc1,104,107
Cc1ccc(NC(=O)Cn2c(=O)c(C(F)(F)F)nc3ccccc32)c(C)c1,110,113
COc1ccc(-c2nc(SCC(=O)NCC3CCCO3)c(-c3ccc(Cl)cc3)[nH]2)cc1 (stereo not given),110,111
# Going on with the list:
SMILES,Polio RdRp inh,Polio RdRp inh intensity
COc1ccc(CCNC(=O)c2cc3c(s2)-c2ccccc2OC3)cc1OC,102,106
Cc1cc(C)cc(NC(=O)c2cnc3sc(N4CCCC4)nn3c2=O)c1,116,114
CCOC(=O)C1CCN(C(=O)Cn2nc(C)n3c(cc4sccc43)c2=O)CC1,107,113
Cc1ccc(CNC(=O)c2nnn(CC(=O)Nc3cc(C)ccc3C)c2N)cc1,106,112
CC1=C(C(=O)Nc2ccccc2)C(c2ccc(C(=O)O)cc2)n2ncnc2N1 (stereo not given),107,114
O=C(Nc1c(C(=O)Nc2cccc(F)c2)oc2ccccc12)c1cc2ccccc2o1,102,103
Cc1c(C(=O)NCCN(C)C)oc2c1-c1nn(Cc3ccccc3Cl)cc1CC2,114,107
O=C(CSc1nnc2scc(-c3ccc(Cl)cc3)n12)Nc1ccc(F)cc1,106,108
COc1ccc(S(=O)(=O)N(CC(=O)NC(C)c2ccccc2)c2ccc(C)cc2)cc1OC (stereo not given),104,110
COc1cc(C2C(C(=O)Nc3ccc(Cl)cc3)=C(C)Nc3nc(SC)nn32)cc(OC)c1OC (stereo not given),103,108

# Part of the list above, with each value named.
canonical_smiles: O=C(Nc1c(C(=O)Nc2cccc(F)c2)oc2ccccc12)c1cc2ccccc2o1
  Polio RdRp inh: 102
  Polio RdRp inh intensity: 103
canonical_smiles: Cc1cc(C)cc(NC(=O)c2cnc3sc(N4CCCC4)nn3c2=O)c1
  Polio RdRp inh: 116
  Polio RdRp inh intensity: 114
canonical_smiles: O=C(CSc1nnc2scc(-c3ccc(Cl)cc3)n12)Nc1ccc(F)cc1
  Polio RdRp inh: 106
  Polio RdRp inh intensity: 108
canonical_smiles: Cc1ccc(CNC(=O)c2nnn(CC(=O)Nc3cc(C)ccc3C)c2N)cc1
  Polio RdRp inh: 106
  Polio RdRp inh intensity: 112

# The listing continues:
SMILES,Polio RdRp inh,Polio RdRp inh intensity
COC(=O)c1sccc1S(=O)(=O)N(CC(=O)Nc1ccccc1F)c1ccccc1,100,106
COc1cc(OC)cc(C(=O)Nc2ccc3oc(-c4cccc5c(Br)cccc45)nc3c2)c1,104,107
Clc1ccc(CSc2ccc(-c3cccs3)nn2)cc1,109,101
COc1ccc(CCNS(=O)(=O)c2cc(-c3cc(C)no3)ccc2OC)cc1OC,112,113
COc1ccc(NC(=O)c2sc3nc4c(cc3c2N)CCCCCC4)cc1,111,109
COC(=O)c1ccc([C@@H]2Nc3c(C)cc(C)cc3[C@@H]3C=CC[C@@H]32)cc1,105,117
Cc1nc2scc(C)n2c(=O)c1S(=O)(=O)Nc1ccc(N2CCN(C(=O)C(C)C)CC2)cc1,106,103
Cc1ccc(C(=O)NCC(c2ccc3c(c2)OCO3)N2CCOCC2)cc1C (stereo not given),103,106
Cc1oc2ncn(CC(C)C)c(=O)c2c1C(=O)NCCCN(Cc1ccccc1)C(C)C,99,94
Fc1ccc(-c2cc(-c3nc(-c4cccc(Cl)c4)no3)[nH]n2)cc1,99,99
Cc1ccc(-n2nc(C)c3c(C(=O)Nc4ccccc4C(F)(F)F)cc(C)nc32)cc1,105,112
CCCn1c(CCC(=O)Nc2cc(Cl)c(OC)cc2OC)nc2cccnc21,111,112
CCOC(=O)C1CCCN(C(=O)c2ccc3c(c2)N(Cc2ccccc2)C(=O)c2ccccc2S3=O)C1 (stereo not given),107,100
Cc1ccc(C(=O)Nc2c(C(=O)NCc3ccc(Cl)cc3)sc3nc(C)cc(C)c23)cc1,91,78
CC(C)c1ccc(NC(=O)C(Cc2ccccc2)n2cccc2)cc1 (stereo not given),106,107
CN(CC(=O)NCc1ccc(F)cc1)S(=O)(=O)c1ccc2[nH]c3c(c2c1)CCCC3,101,94
CC(C)OCCCNC(=O)CCCn1c(SCC(=O)c2ccc(F)cc2)nc2c(sc3ccccc32)c1=O,107,112
COc1ccc(-n2nc(C(=O)N(C)c3cc(C)ccc3C)c3c4ccccc4n(C)c3c2=O)cc1Cl,103,111
CCCN(CCC)CCNC(=O)c1cc(-c2ccc(Br)s2)nc2ccccc12,108,112
CC(=O)c1cccc(NS(=O)(=O)c2ccc3[nH]c4c(c3c2)CCCCC4)c1,113,114
COc1cccc(N2CCN(C(=O)CCc3c(C)nc4c(c3C)c(=O)n(C)c(=O)n4C)CC2)c1,111,111
Oc1c(Br)cc(Br)cc1-c1nc2ccccc2s1,102,100
COc1ccc(-c2n[nH]c3c2C(c2ccc(O)cc2)N(c2ccc(Br)cc2)C3=O)cc1 (stereo not given),108,106
COc1ccc(CNc2nc(-c3ccco3)nn2C(=O)c2ccccc2C)cc1,105,104
O=C(CN1C(=O)CCc2cc(S(=O)(=O)N3CCOCC3)ccc21)NCc1ccccc1,102,105
CCOC(=O)CC(NC(=O)CCc1c(C)nc2c(-c3ccccc3)c(C)nn2c1C)c1ccc(C)cc1 (stereo not given),104,109
COc1ccccc1NC(=O)CCn1nc(-c2ccccc2)c2ccccc2c1=O,107,106
Cc1cc(Cl)ccc1NC(=O)C1CCCN1S(=O)(=O)c1ccc2c(c1)CCCC(=O)N2 (stereo not given),106,104
CCOC(=O)c1cccc(Nc2c3c(nc4ccccc24)CCC3)c1,104,104
CCc1ccc(NC(=O)C2CCC(CNS(=O)(=O)c3ccc4c(c3)CC(C)N4C(C)=O)CC2)cc1 (stereo not given),112,103

# 6 entries from above in a different format:
# Values run as follows: Polio RdRp inh | Polio RdRp inh intensity
- COc1ccc(-c2n[nH]c3c2C(c2ccc(O)cc2)N(c2ccc(Br)cc2)C3=O)cc1 (stereo not given)
→ 108 | 106
- COc1ccc(CNc2nc(-c3ccco3)nn2C(=O)c2ccccc2C)cc1
→ 105 | 104
- O=C(CN1C(=O)CCc2cc(S(=O)(=O)N3CCOCC3)ccc21)NCc1ccccc1
→ 102 | 105
- CCOC(=O)CC(NC(=O)CCc1c(C)nc2c(-c3ccccc3)c(C)nn2c1C)c1ccc(C)cc1 (stereo not given)
→ 104 | 109
- COc1ccccc1NC(=O)CCn1nc(-c2ccccc2)c2ccccc2c1=O
→ 107 | 106
- Cc1cc(Cl)ccc1NC(=O)C1CCCN1S(=O)(=O)c1ccc2c(c1)CCCC(=O)N2 (stereo not given)
→ 106 | 104
